Screening results: PubChem BioAssay, National Center for Advancing Translational Sciences (NCATS)
NPR1 antag: blocks ANP-stimulated signaling of human Npr1 receptor. AID 1347048. Potency, µM (series often up to 46.3 µM), for inactives: at the top dose activity change, negative = inhibition, most hits filed as inhibitors. actives 1.6% (n = 76,000). HEK293 hNpr1 GloSensor cGMP, ANP-stimulated luminescence; active = well fitted inhibition curve with a large enough effect; inconclusive = small, poorly fitted or top-dose-only effect; inactive = no such curve, though single readings can be large or run the other way;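 note: nearly all actives have a fitted effect of over 60% in size; nearly all hits also lower the signal before the agonist is added; a reference antagonist and vehicle were the controls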
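Compound pre-incubated 30 min at room temperature on GloSensor-loaded HEK293 cells stably carrying hNpr1 and the pGS-40F cGMP biosensor. Stimulation uses hNppA at 0.1 nM final; luminescence is taken at baseline and 20 min post-agonist.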
An asterisk follows results filed as active; [ ] = another dose, or the depositor's remark. % is set by controls: 0 for no effect and ±100 for the full control effect; potency is the fitted concentration of half-maximal effect. Some of the compounds tested, so the mix of outcomes need not match the whole.

Results for COCCOc1ccc2c(n1)CCN(C(=O)NC1CCCC1)C2 ?
NPR1 antag: 3.4%

What do the screens show for `COc1ccc(-c2noc([C@@H]3CCCN3C(=O)c3ccc(Cl)cc3OC)n2)cc1OC`?
NPR1 antag: -0.3%

Results for COc1ccccc1C(=O)N1CCC2(C1)C(=O)N(C)c1ccccc12 (stereo unspecified) ?
NPR1 antag: 5.0%[70.6 µM]

What do the screens show for `O=C(C1CC1)N1CCC(c2noc(-c3cnccn3)n2)C1` (stereo unspecified)?
NPR1 antag: -2.9%

How did CC(C)CCC(=O)N1CCc2nc(N3CCN(C)CC3)sc2C1 do in these assays?
NPR1 antag: -16.9%

What do the screens show for `O=C([C@H]1C[C@@H](F)CN1S(=O)(=O)c1cccc(Cl)c1)N1CCOCC1`?
NPR1 antag: -2.5%

What do the screens show for `CN1CC2(CCN(C(=O)NC3CCCCC3)CC2)CC1C(=O)N1CCOCC1` (stereo unspecified)?
NPR1 antag: -5.1%

Fetched by structure from the list above (2):
What do the screens show for `CN1CC2(CCN(C(=O)NC3CCCCC3)CC2)CC1C(=O)N1CCOCC1` (stereo unspecified)?
NPR1 antag: -5.1%

What do the screens show for `COc1ccc(-c2noc([C@@H]3CCCN3C(=O)c3ccc(Cl)cc3OC)n2)cc1OC`?
NPR1 antag: -0.3%

Molecules from the list above that contain a carbonyl joined to an NH by a bond outside any ring:
Results for COCCOc1ccc2c(n1)CCN(C(=O)NC1CCCC1)C2 ?
NPR1 antag: 3.4%

What do the screens show for `CN1CC2(CCN(C(=O)NC3CCCCC3)CC2)CC1C(=O)N1CCOCC1` (stereo unspecified)?
NPR1 antag: -5.1%
